Bfl-1 A1 inh: inhibitors of the anti-apoptotic protein A1, read as caspase activation. caspase activation, % (concentration not given with the values). 330,000 tested, 0.066% active. MEF A1-2A-BIM cells, Caspase-Glo 3/7 luminescence, 3 h; percent of clofoctol response, vehicle zero;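 active = over half of replicate activation scores above 10%, or exactly half above 10 with the replicate mean above 10; inconclusive = replicate mean below 10 yet half the replicates above 10; inactive = over half of replicates below 10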;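 note: wells of about 30 µL received 50 nL stock; many hits fall short of the cut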
rRNA inh HTS: inhibits bacterial ribosomal RNA function over humanized ribosomes | 350,000 tested, 1.6% active | GFP signal change (wild-type ribosome), % (no concentration beside the values) | E. coli WT GFP vs humanized-ribosome RFP mutants, fluorescence, 24 h; hits give low values; DMSO median 0, no signal -100 | AID 720706;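 active = significant combined selectivity score with lowered wild-type GFP, culture density cut under 30%, mutant RFP and density less affected; inactive = any of these conditions unmet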; note: one replicate is shown; some compounds called inactive have numbers as strong as hits
Calb FLC: affects C. albicans growth with fluconazole; C. albicans CaCi-2 (fluconazole-resistant clinical isolate) + fluconazole, Alamar Blue growth, 48 h; growth inhibition, % (concentration not given with the values); 300,000 tested, 0.57% active; AID 1979;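 active = most replicates above 75%; inconclusive = exactly half above 75%; inactive = most below 75%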;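 note: all wells also contain fluconazole at 8 µg/ml as a sub-toxic cotreatment; 0% = median of DMSO wells and 100% = median of geldanamycin control wells; wells of about 8 µL received 7.5 nL stock; the first replicate is given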
Beta apoptosis: beta cell apoptosis inhibition | INS-1E cytokine-induced death, ATP luminescence, 48 h; percent of positive-control rescue, neutral wells zero | protection from apoptosis, % (concentration not given with the values) | 300,000 tested, 0.8% active | AID 435005;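 active = all replicates at 75% or more, or half of them and the mean; inconclusive = half reach 75% but not the mean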;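 note: 0% = cytokine-treated negative control wells and 100% = positive control rescue; higher means more ATP so stronger rescue from cytokine killing; wells of about 40 µL received 100 nL stock; the first replicate is given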
Vif A3G: inhibitors of Vif binding to APOBEC3G peptide, primary screen, biochemical, TR-FRET, GST-Vif 1-94, biotin-A3G peptide, dose response retest (AID 1117319); TR-FRET GST-Vif / biotin-A3G peptide binding; higher % means a stronger effect; test concentration not given here; strong numbers were not always called active; inhibition, %; hits with a dose series show IC50 in µM; 260,000 tested, 0.57% active;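 active = above the screen mean plus three standard deviations and confirmed in dose response; inconclusive = results disagree or hit not tested in dose response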;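 note: Vif residues 1-94 fused to GST binding biotinylated APOBEC3G peptide 110-148; 0% = full assay without inhibitor and 100% = GST in place of GST-Vif; retest series ran down from 100 µM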
AF4-AF9 inh: inhibitors of human MLL-AF4/AF9 interaction. inhibition, % at 10 µM. P42568. 350,000 tested, 0.47% active. AID 651704. AlphaScreen, biotin-AF4 peptide binding to FLAG-AF9;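 active = every replicate reaching a set inhibition limit, whatever the replicate mean, cut at about 25% in these data; inconclusive = mean inhibition reaches that limit but some replicates miss it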;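 note: 0% = plate neutral control median and 100% = total signal loss; the record names both 10 and 1 µM as test concentration; the first replicate is given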
Target sequence (P42568 whole entry, looked up): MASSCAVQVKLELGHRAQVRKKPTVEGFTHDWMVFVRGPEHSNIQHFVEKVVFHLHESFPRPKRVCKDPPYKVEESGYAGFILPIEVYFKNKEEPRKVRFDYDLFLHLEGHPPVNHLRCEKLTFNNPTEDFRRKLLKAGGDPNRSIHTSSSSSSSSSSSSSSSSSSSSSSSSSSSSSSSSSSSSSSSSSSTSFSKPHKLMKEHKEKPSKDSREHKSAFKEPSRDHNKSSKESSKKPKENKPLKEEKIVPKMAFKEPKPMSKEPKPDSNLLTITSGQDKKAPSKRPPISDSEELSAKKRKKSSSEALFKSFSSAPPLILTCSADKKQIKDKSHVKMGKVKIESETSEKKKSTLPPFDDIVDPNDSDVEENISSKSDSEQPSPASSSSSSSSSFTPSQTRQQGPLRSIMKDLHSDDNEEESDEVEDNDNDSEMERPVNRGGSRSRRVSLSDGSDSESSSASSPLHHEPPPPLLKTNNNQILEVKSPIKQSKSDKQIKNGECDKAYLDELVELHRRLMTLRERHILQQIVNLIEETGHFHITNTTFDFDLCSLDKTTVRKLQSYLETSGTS
T cruzi repl: T. cruzi replication inhibition; T. cruzi beta-gal in NIH3T3, luminescence, 90 h; inhibition, % (no concentration beside the values); 300,000 tested, 1.4% active; AID 1885;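 active = mean inhibition across valid replicates above about 55%, limit read from the data; inconclusive = mean below that limit but half or more replicates reach it; inactive = mean below it, under half of replicates reach it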;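 note: signal also drops with host cell toxicity which is not excluded here; 0% = plate median of DMSO wells and 100% = zero luminescence signal; higher percent means less beta-gal luminescence so fewer parasites; stock transfer was 50 nL into about 50 µL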
RanGTP-Impb inh: disruptors of Ran-importin-beta complex formation – biochemical, FRET, CFP-Ran, YFP-importin-beta, homogeneous, primary screen. cell-free CFP-Ran/YFP-importin-beta FRET ratio. inhibition, % (concentration not given with the values). 300,000 tested, 1.1% active;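 active = most replicates above 15%; inconclusive = exactly half above 15%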;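 note: 0% = DMSO wells and 100% = Ran loaded with GDP instead of GTP; wells of about 40 µL received 100 nL stock; the first replicate is given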
rRNA inh HTS OD600: second read-out of rRNA inh HTS, no call of its own (marks repeat the call); OD600 change, %; measured here: OD600 growth;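 optical density of the mix in the first replicate; 0 = DMSO median and -100 = no signal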
rRNA inh HTS RFP: also measured in rRNA inh HTS; calls as there; RFP signal change, %; measured here: RFP humanized mutant strains;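 first replicate; 0 = DMSO median and -100 = no signal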
* marks the source's active call; other numbers are inactive results; ? = inconclusive; . = not tested or not shown. Some of the compounds tested. The share of hits here may be higher or lower than overall.

SMILES | Bfl-1 A1 inh | rRNA inh HTS | rRNA inh HTS OD600 | rRNA inh HTS RFP | Calb FLC | Beta apoptosis | Vif A3G | AF4-AF9 inh | T cruzi repl | RanGTP-Impb inh
O=C(CNC(=O)c1cccs1)NCC(=O)OCc1cccc(Cl)c1 | 0.4 | 14 | 10 | 3.7 | 7 | -4 | 0% | . | 10 | 1.1
Cc1occc1C(=O)Nc1nnc(C2CCCCC2)s1 | -4.3 | . | . | . | -17 | 1 | 5% | . | . | ?
CCOC(=O)c1ccc(N2C(=O)C(CC(N)=O)N(CCc3ccc(OC)c(OC)c3)C2=S)cc1 (stereo unspecified) | -0.9 | . | . | . | 2 | -1 | 0% | -1.1 | 2 | 0.0
CC1=CC(C)(C)n2c(O)c(N=N)c3cc(C)cc1c32 | 0.8 | -10 | -11 | -16 | 24 | -9 | 2% | 26* | 20 | -3.9
CCn1c(N2CCN(C(=O)Nc3ccc(F)cc3)CC2)nc2ccccc21 | 1.5 | . | . | . | -2 | -1 | 5% | . | -1 | 9.8
O=[N+]([O-])c1ncccc1OCc1ccc(Br)cc1F | 0.3 | -14 | -15 | 2.0 | -1 | -3 | . | -1.9 | -4 | 3.1
CN1C2CCC1CC(NS(=O)(=O)c1cc(Cl)c(Cl)cc1Cl)C2 (stereo unspecified) | -0.2 | 5 | 3 | 0.8 | 4 | -2 | . | 0.5 | -9 | 1.5
O=C(CNC(=O)c1ccccc1F)c1ccccc1 | -9.7 | 10 | 13 | 0.1 | 0 | 1 | . | -0.6 | -13 | 1.4
O=C(NCc1cccc(Cl)c1)c1cccc(C(F)(F)F)c1 | 1.7 | -5 | -5 | 7.7 | -14 | 0 | -1% | 3.6 | 4 | -3.0
COc1cc(/C=N/n2c(C3CCCCC3)n[nH]c2=S)cc(OC)c1O | -0.7 | 17 | 4 | 4.9 | 5 | -3 | -7% | -4.0 | 4 | -4.5
O=C(CNC(=O)c1ccccc1F)N/N=C\C=C\c1ccccc1 | -0.5 | 5 | 16 | -1.5 | 14 | 1 | . | -2.3 | -5 | 7.1
CCC(=O)Nc1cccc(C(=O)/C=C/c2cc(Br)ccc2OC)c1 | -0.3 | . | . | . | 9 | -9 | 2% | . | 21 | -3.6
C=CCn1c(SCc2cccc(C#N)c2)nnc1-c1ccccc1O | 0.3 | -12 | -20 | -2.4 | 0 | 2 | ? | 1.2 | 8 | 0.2
O=C(CSc1ncn[nH]1)NC12CC3CC(CC(C3)C1)C2 | 0.2 | . | . | . | 2 | -1 | 18% | . | -9 | -5.5
CC(C)CNS(=O)(=O)c1ccc(OCC(=O)Nc2ccc3c(c2)OCCO3)cc1 | -0.3 | . | . | . | 9 | -7 | . | . | 3 | -3.1
Cc1cc(NC(=O)c2ccc(C)s2)n(-c2ccccc2)n1 | 0.4 | . | . | . | -16 | -1 | 3% | . | 4 | 3.5
Cc1cccc(N2CCN(C(=O)CN3CCOc4ccccc43)CC2C)c1 (stereo unspecified) | -0.1 | -4 | -8 | 2.8 | 0 | 2 | 16% | 10 | 4 | 5.1
O=C(NCCCN1CCCC1=O)c1ccc(NS(=O)(=O)c2ccccc2)cc1 | ? | 10 | 11 | 2.6 | -7 | -2 | 0% | 0.3 | -6 | 0.5
COc1cccc(CN2CC(C(=O)NCc3ccc(Cl)s3)CCC2=O)c1 (stereo unspecified) | . | 1 | 11 | 2.0 | -6 | . | . | -1.8 | 2 | -0.6
CCN(c1ccccc1)S(=O)(=O)c1ccc(C(=O)Nc2nccs2)cc1 | -0.6 | . | . | . | -9 | -6 | -4% | . | 16 | 1.9
Cc1ccc(-n2nnc3c(=O)n(Cc4cc(C)ccc4C)cnc32)cc1 | 0.5 | . | . | . | 4 | . | 0% | . | 19 | 0.9
CCCCC(=O)N1C/C=C\[C@H](c2ccc(OC)cc2)N(Cc2ccc(F)cc2)C(=O)[C@@H]1C | 0.1 | -1 | -10 | -3.6 | 0 | 4 | . | 3.7 | 17 | 5.3
CC(C)(C)C(=O)Nc1c2c(nn1-c1ccccc1)CSC2 | -0.3 | 0 | 5 | 1.2 | 7 | 3 | . | -0.2 | 6 | -1.2
Cc1ccccc1NC(=O)NCC1CCN(C(=O)OC(C)(C)C)CC1 | -0.7 | -10 | -2 | -3.8 | -2 | -2 | . | 0.6 | 3 | 0.8
Cc1ccc(-c2cc(C(=O)NCCCN3CCOCC3)no2)cc1 | -1.1 | . | . | . | 11 | -4 | 16% | . | 7 | 2.8

In the list so far, these contain an NH in an aromatic ring.
SMILES | Bfl-1 A1 inh | rRNA inh HTS | rRNA inh HTS OD600 | rRNA inh HTS RFP | Calb FLC | Beta apoptosis | Vif A3G | AF4-AF9 inh | T cruzi repl | RanGTP-Impb inh
COc1cc(/C=N/n2c(C3CCCCC3)n[nH]c2=S)cc(OC)c1O | -0.7 | 17 | 4 | 4.9 | 5 | -3 | -7% | -4.0 | 4 | -4.5
O=C(CSc1ncn[nH]1)NC12CC3CC(CC(C3)C1)C2 | 0.2 | . | . | . | 2 | -1 | 18% | . | -9 | -5.5

The listing picks up, repeating the 2 entries before the break.
SMILES | Bfl-1 A1 inh | rRNA inh HTS | rRNA inh HTS OD600 | rRNA inh HTS RFP | Calb FLC | Beta apoptosis | Vif A3G | AF4-AF9 inh | T cruzi repl | RanGTP-Impb inh
Cc1ccccc1NC(=O)NCC1CCN(C(=O)OC(C)(C)C)CC1 | -0.7 | -10 | -2 | -3.8 | -2 | -2 | . | 0.6 | 3 | 0.8
Cc1ccc(-c2cc(C(=O)NCCCN3CCOCC3)no2)cc1 | -1.1 | . | . | . | 11 | -4 | 16% | . | 7 | 2.8
O=C(c1cn(-c2ccccc2)nc1-c1cccs1)N1CCOCC1 | 0.1 | . | . | . | 1 | 1 | -2% | . | -3 | 4.7
CC1(c2ccc(Cl)cc2)NC(=O)N(CN2CCOCC2)C1=O (stereo unspecified) | -0.2 | 2 | 3 | 0.9 | -11 | 1 | ? | -0.5 | 0 | -1.9
O=C(O)CC(NC(=O)CCC1CCCCC1)c1cc([N+](=O)[O-])ccc1Cl (stereo unspecified) | 0.5 | 16 | 14 | 1.8 | 10 | -2 | -1% | -1.0 | 6 | ?
O=C(O)CCCCCN1C(=O)c2ccc(C(=O)O)cc2C1=O | -0.4 | 11 | 13 | 0.1 | -6 | -8 | 7% | -2.4 | -3 | -1.9
Cc1ccccc1C(=O)NNc1ccc(-c2csnn2)cc1 | 1.5 | 4 | 6 | 2.4 | -13 | 6 | . | . | 33 | 1.2
O=C1c2ccc(Br)cc2C(=O)N1c1ccc(Cl)cn1 | 1.6 | 16 | 15 | 0.8 | 2 | 0 | -5% | -7.1 | -15 | 7.6
COc1ccc(NS(=O)(=O)c2cccc(C(=O)N(C)CC(=O)Nc3ccc(C)cc3)c2)cc1 | 1.1 | -5 | -17 | 1.5 | 7 | -1 | 2% | -8.5 | 3 | -0.1
C=CCNC(=O)/C(C#N)=C/c1ccccc1OCc1ccc(C(=O)OC)cc1 | -0.3 | 2 | -6 | 6.3 | ? | 3 | . | -0.8 | 6 | -1.0
CSc1nc(N2CCN(C)CC2)c2c(c1C#N)CC(C)(C)OC2 | -0.2 | -12 | -14 | 1.1 | -5 | 7 | -2% | 0.7 | 45 | 2.0
CC(C)C(=O)Nc1cccc(C(=O)Nc2ccc3c(c2)OCO3)c1 | -6.3 | . | . | . | -6 | . | -1% | . | -9 | 2.3
COc1cc2nc(CN(C)Cc3ccc(SC)cc3)[nH]c(=O)c2cc1OC | -1.5 | 7 | 7 | 4.3 | -1 | -15 | 6% | 3.1 | -8 | 1.7
CCOC(=O)Cn1nc(C)c(NC(=O)c2cccc([N+](=O)[O-])c2)c1C | -0.1 | 12 | 10 | 0.2 | -34 | 4 | -1% | 1.1 | 5 | -2.7
CC(=O)Nc1ccc(NC(=O)Cc2ccc(S(=O)(=O)N3CCCCC3)s2)cc1 | 0.6 | . | . | . | 3 | -3 | 11% | . | -3 | -0.1
O=c1c2ccccc2oc2ccc(C#CC3(O)CCCCC3)cc12 | -8.4 | -30 | -68 | -2.7 | -5 | -5 | . | -16 | 32 | 0.7
C=CCn1c(SCC(=O)O)nc2sc(CC)cc2c1=O | -0.4 | 3 | -12 | -3.7 | -5 | -5 | 5% | -4.1 | 2 | -2.8
COc1cc(/C=C2\SC(=O)N(CCN)C2=O)ccc1OS(=O)(=O)c1cc(C)ccc1C | . | -48 | -74 | -13 | 1 | . | . | 11 | 47 | -1.2
CCOc1ccc(NC(=O)CSc2nnc(C)n2Cc2ccccc2)cc1 | 0.6 | . | . | . | -3 | 1 | 0% | . | 8 | 1.0
O=c1[nH]c2cccnc2n(CCNc2ncc(C(F)(F)F)cc2Cl)c1=O | -0.4 | 10 | 7 | 9.7 | ? | 2 | 1% | -1.9 | -4 | 0.9
O=C(c1cc(-c2ccccn2)nc2ccc(Cl)cc12)N1CCN(CCc2ccccc2)CC1 | 3.3 | -13 | -14 | 17 | -3 | -5 | ? | 1.0 | 1 | 1.7
O=C(c1ccc2c(c1)OCO2)N(c1ccc(Br)cc1)C1C=CS(=O)(=O)C1 (stereo unspecified) | -0.2 | 4 | 3 | 3.0 | -6 | 0 | . | -1.1 | -26 | 1.7
CCOC(=O)C(C)Sc1nnc(-c2c[nH]c3ccccc23)n1C (stereo unspecified) | 0.1 | . | . | . | -6 | -2 | -1% | -4.3 | -12 | ?
CC(C)N(C)S(=O)(=O)c1ccc(NC(=O)C2=COCCO2)cc1 | -4.9 | 1 | 11 | -2.8 | . | 0 | 2% | 1.5 | . | .
CN(C)CCn1c(=O)n(Cc2ccco2)c(=O)c2c3c(sc21)CCCCC3 | 0.5 | . | . | . | 10 | 6 | 3% | . | 55* | 0.8
NNC(=O)c1sc2cc(C(F)(F)F)cnc2c1-c1cccs1 | 0.4 | -3 | -5 | -2.4 | -7 | -7 | 20% | 1.3 | 13 | -4.6
CC(=O)c1ccccc1NC(=O)CSc1n[nH]c(=O)n1C1CC1 | -0.7 | 0 | 0 | 5.3 | . | 1 | 0% | -5.1 | . | .
NS(=O)(=O)c1ccc(-n2ncc3c(=O)[nH]c(SCC(=O)Nc4nccs4)nc32)cc1 | -0.7 | 1 | 14 | -0.7 | 1 | -3 | -8% | -2.6 | 0 | -2.4
CCCn1c(=O)[nH]c(=O)c2c(C(F)(F)F)cc(-c3ccc(C)cc3)nc21 | -2.6 | -4 | 3 | -1.1 | 22 | -5 | -4% | -1.3 | 11 | 4.3

AF4-AF9 inh, entries above that show a hit
| Compound | rRNA inh HTS | rRNA inh HTS OD600 | rRNA inh HTS RFP | Vif A3G | AF4-AF9 inh | RanGTP-Impb inh |
| --- | --- | --- | --- | --- | --- | --- |
| CC1=CC(C)(C)n2c(O)c(N=N)c3cc(C)cc1c32 | -10 | -11 | -16 | 2% | 26* | -3.9 |
